Source: PubChem (ICCB-Longwood Screening Facility, Harvard Medical School)
HCMV NEC inh: disrupts HCMV UL50-UL53 complex binding; inhibition, % (test concentration not listed); AID 1918969; hit rate 0.15% among 190,000; HTRF UL50-UL53 interaction, normalized percent inhibition;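 active means both replicates at 50% or more, plus weaker picks with an unusually low signal ratio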;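 further: stock transfer was 100 nL into about 20 µL; 0% = negative control wells and 100% = wells with untagged competitor protein; inactives centre near -12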
GIV-Gai inh: GIV-Galpha-i interaction inhibition; P08753; Galpha-i3/FITC-GIV peptide fluorescence polarization, 90 min; hits give low values; scaled: aluminum fluoride 0%, vehicle 100%; percent of control (FP), % (concentration not given with the values); hit rate 0.42% among 210,000;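 active means replicate mean at 85% of control or lower, very high polarization wells dropped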;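 further: wells of about 15 µL received 100 nL stock; the first replicate is given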
Target sequence (P08753 whole entry, looked up): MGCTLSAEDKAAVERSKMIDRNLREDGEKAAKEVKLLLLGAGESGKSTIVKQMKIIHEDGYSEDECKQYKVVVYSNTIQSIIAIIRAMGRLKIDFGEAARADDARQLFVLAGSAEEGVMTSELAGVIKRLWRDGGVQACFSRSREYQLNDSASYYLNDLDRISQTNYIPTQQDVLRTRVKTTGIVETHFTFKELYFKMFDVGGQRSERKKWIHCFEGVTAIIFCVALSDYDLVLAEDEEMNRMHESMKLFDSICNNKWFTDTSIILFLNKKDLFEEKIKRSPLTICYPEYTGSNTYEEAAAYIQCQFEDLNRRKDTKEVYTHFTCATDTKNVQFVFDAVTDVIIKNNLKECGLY
Sa growth 42C: S. aureus growth inhibition; S. aureus RN4220 growth, OD600, 20 h, 42 °C; hits give low values; relative growth, % (test concentration not listed); hit rate 0.53% among 170,000;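 active means growth at 42 °C up to 50% and 20 or more points under that at 30 °C, or under 10% at both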;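 further: 300 nL library stock went into each well; scaled to the means of positive and negative controls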
Sa growth 42C second temp: recorded beside Sa growth 42C, whose call it bears; relative growth, %; measured here: growth at 30 °C;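 optical density after 20 h as mean of two plates; 100% = untreated growth and lower means inhibition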
* marks the source's active call; other numbers are inactive results; x = no result given.

SMILES | HCMV NEC inh | GIV-Gai inh | Sa growth 42C | Sa growth 42C second temp
CC(C)(CNS(=O)(=O)c1ccc(Cl)cc1)N1CCCCC1 | -22 | x | 114 | 91
O=C(NCC(c1ccco1)N1CCCC1)c1ccc(-n2cccn2)cc1 (stereo not given) | -16 | x | 88 | 88
CCOC(=O)c1sc(NC(=O)Cc2csc(C)n2)c(C(=O)OCC)c1C | 8 | 126 | x | x
Cc1cccc(-c2n[nH]n3c2nc(=O)c2ccccc23)c1 | -16 | 99 | 94 | 89
CCC(C(=O)NCCc1ccccc1Cl)n1nc(C)c2sc3ccccc3c2c1=O (stereo not given) | 3 | 102 | x | x
CCOC(=O)c1sc(/N=C/c2cccc(Br)c2)cc1C | -7 | x | 118 | 94
COc1ccc(C2CC(=O)C3=C(C2)Nc2ccccc2NC3c2coc3ccc(Cl)cc3c2=O)cc1 (stereo not given) | -26 | 92 | x | x
COc1ccc(-c2n[nH]n3c2nc(=O)c2ccccc23)cc1 | 5 | 103 | 102 | 95
CCCCP(=O)(c1ccccn1)c1ccccn1 | -12 | x | 98 | 99
NC(=O)Oc1ccc(I)cc1 | -10 | x | 119 | 88
Cc1ccc2oc(-c3ccccc3Cl)nc2c1 | 23 | 107 | 101 | 82
O=C(NC1CCCc2ccccc21)C1CCCC1 (stereo not given) | -6 | x | 103 | 102
CCOC(=O)c1ccc(NC(=O)CSc2ncc(S(=O)(=O)c3ccc(C)c(Cl)c3)c(=O)[nH]2)cc1 | x | 100 | 76 | 66
Cn1ncc(S(=O)(=O)Cc2ccccc2)c(Br)c1=O | -36 | 100 | x | x
Oc1cccc(-c2nc(-c3ccccc3)c3ccccn23)c1 | -12 | x | 116 | 97
CCN1CCN(c2c(S(=O)(=O)c3ccc(OC)cc3)cnc3cc(OC)c(OC)cc23)CC1 | -11 | 107 | 123 | 74
COc1ccc(CCNC(=O)CSc2nc(=O)[nH]c3c2CCCC3)cc1OC | -26 | 104 | 80 | 82
Cn1c(N)c(C(=S)NC(=O)c2cccs2)c(=O)n(C)c1=O | -13 | x | 110 | 106
CCCC(=O)NC(c1ccc(OC)c(OC)c1)c1cc(Cl)c2cccnc2c1O (stereo not given) | -17 | 95 | 86 | 80
O=C1Nc2ccccc2S/C1=C\C(=O)N1CCN(c2ccc(F)cc2)CC1 | -7 | 95 | 97 | 95

Some of these compounds in order of SMILES length, falling:
SMILES | HCMV NEC inh | GIV-Gai inh | Sa growth 42C | Sa growth 42C second temp
CCC(C(=O)NCCc1ccccc1Cl)n1nc(C)c2sc3ccccc3c2c1=O (stereo not given) | 3 | 102 | x | x
O=C1Nc2ccccc2S/C1=C\C(=O)N1CCN(c2ccc(F)cc2)CC1 | -7 | 95 | 97 | 95
CCOC(=O)c1sc(NC(=O)Cc2csc(C)n2)c(C(=O)OCC)c1C | 8 | 126 | x | x
CC(C)(CNS(=O)(=O)c1ccc(Cl)cc1)N1CCCCC1 | -22 | x | 114 | 91
Cn1ncc(S(=O)(=O)Cc2ccccc2)c(Br)c1=O | -36 | 100 | x | x
Cc1ccc2oc(-c3ccccc3Cl)nc2c1 | 23 | 107 | 101 | 82

The listing picks up, repeating the 3 entries before the break.
SMILES | HCMV NEC inh | GIV-Gai inh | Sa growth 42C | Sa growth 42C second temp
Cn1c(N)c(C(=S)NC(=O)c2cccs2)c(=O)n(C)c1=O | -13 | x | 110 | 106
CCCC(=O)NC(c1ccc(OC)c(OC)c1)c1cc(Cl)c2cccnc2c1O (stereo not given) | -17 | 95 | 86 | 80
O=C1Nc2ccccc2S/C1=C\C(=O)N1CCN(c2ccc(F)cc2)CC1 | -7 | 95 | 97 | 95
Cc1nc2ncnn2c(C)c1CCC(=O)Nc1ccccc1 | 3 | 102 | 101 | 91
CCC(C)NS(=O)(=O)c1cc(-c2ccno2)sc1C (stereo not given) | -28 | 100 | x | x
COC(=O)/C(=C(/O)CSc1nnc(C2CC2)n1C)c1nc2ccccc2[nH]1 | -9 | x | 80 | 88
c1ccc(-c2nnc3cc(-c4ccccc4)sc3n2)cc1 | 2 | 95 | 109 | 93
CNC(=O)c1c(C)nc(SCC(=O)OCC(=O)Nc2ccc(C)c(C)c2)c(C#N)c1-c1ccco1 | 13 | x | 84 | 102
Cc1ccc(S(=O)(=O)c2nnn3c2nc(N2CCCCC2)c2sccc23)cc1 | x | 103 | 89 | 82
Nc1nnc(SCc2cc(F)cc3c2OCOC3)s1 | 12 | 104 | 113 | 103
Cc1ccc(-c2cc(C(=O)NC(C)(C)CO)no2)cc1 | x | 105 | 82 | 84
COc1ccc(-c2[nH]ncc2CN2CCN(c3ncc(C(F)(F)F)cc3Cl)CC2)cc1 | -24 | 104 | 100 | 82
Cc1ccc(Cl)cc1N1CCN(S(=O)(=O)c2ccc3c(c2)CC(C)N3C(=O)C2CCC2)CC1 (stereo not given) | x | 108 | 82 | 93
Cc1c(C#N)c(N)n(Cc2ccco2)c1C | 2 | x | 72 | 90
CCc1ccc(OCC(=O)Nc2ccc(S(=O)(=O)C(F)F)cc2)cc1 | 2 | x | 109 | 101
COc1ccc(NC(=O)CCn2cnc3onc(-c4ccc(F)cc4)c3c2=O)cc1OC | x | 109 | 132 | 97
Cc1ccc(-n2c(=O)c3c(cnn3C)n(Cc3ccccc3Cl)c2=O)cc1 | -33 | 99 | x | x
COc1ccc(NC(=O)c2sc(=S)n3c2[nH]c(=O)c2ccccc23)cc1 | -3 | 98 | 35 | 15
COc1ccc2sc(N(CCN(C)C)C(=O)c3ccc(C(=O)c4ccccc4)cc3)nc2c1 | -5 | 106 | x | x
CNc1c(C(=O)c2ccc(OC)c(OC)c2)sc(N)c1C#N | -100 | 107 | 86 | 49
COc1ccc(NC(=O)c2oc3ccccc3c2NC(=O)Cc2coc3cc(C)ccc23)cc1 | -7 | 105 | 107 | 91
Cn1c(=O)oc2cc(S(=O)(=O)NC3CCCCC3)ccc21 | 6 | 96 | x | x
N#C/C(=C\c1ccc(F)cc1F)S(=O)(=O)c1ccccc1 | 3 | 97 | 92 | 68

Some of the entries above in another layout:
| mol | HCMV NEC inh | GIV-Gai inh | Sa growth 42C | Sa growth 42C second temp |
| --- | --- | --- | --- | --- |
| Cc1ccc(-n2c(=O)c3c(cnn3C)n(Cc3ccccc3Cl)c2=O)cc1 | -33 | 99 | x | x |
| COc1ccc(NC(=O)c2sc(=S)n3c2[nH]c(=O)c2ccccc23)cc1 | -3 | 98 | 35 | 15 |
| COc1ccc2sc(N(CCN(C)C)C(=O)c3ccc(C(=O)c4ccccc4)cc3)nc2c1 | -5 | 106 | x | x |
| CNc1c(C(=O)c2ccc(OC)c(OC)c2)sc(N)c1C#N | -100 | 107 | 86 | 49 |

Compound profiles, as listed above. Values in the order: HCMV NEC inh	GIV-Gai inh	Sa growth 42C	Sa growth 42C second temp
Profile of c1ccc(-c2nnc3cc(-c4ccccc4)sc3n2)cc1 = 2	95	109	93
Profile of Cn1c(=O)oc2cc(S(=O)(=O)NC3CCCCC3)ccc21 = 6	96	x	x
Profile of Cc1ccc(-c2cc(C(=O)NC(C)(C)CO)no2)cc1 = x	105	82	84

(further entries)
SMILES | HCMV NEC inh | GIV-Gai inh | Sa growth 42C | Sa growth 42C second temp
CCn1c(=O)c(N2CCN(C(=O)c3cccc(OC)c3)CC2)nc2ccccc21 | -39 | 100 | x | x
O=C(/C=C\c1ccc2c(c1)OCO2)NC1CC(=O)N(c2ccccc2)C1 (stereo not given) | x | 103 | 100 | 101
COCCOC(=O)C1=C(C)OC(N)=C(C#N)C1c1cc2cc3c(cc2nc1Cl)OCO3 (stereo not given) | -57 | 114 | 104 | 96
COc1ccccc1CN(C)C(C)C(=O)NC1CCCc2ccccc21 (stereo not given) | -21 | x | 91 | 78
CCC(Sc1ccccc1C(=O)O)C(=O)O (stereo not given) | -10 | 94 | 82 | 104
Cc1cccc(NC(=O)c2ccc(S(=O)(=O)N3CCCCC3)cc2)n1 | -23 | 105 | 84 | 84
Cc1c(Sc2ccc(Cl)cc2)cnn1C(=O)NC(C)C | -2 | 97 | 99 | 69
CCC(Sc1nc(=O)cc(N)n1-c1cccc(C)c1)C(=O)Nc1nnc(C)s1 (stereo not given) | 5 | 108 | 107 | 96
Brc1ccc(-c2nc(-c3cccs3)c(-c3cccs3)[nH]2)s1 | x | 106 | 110 | 87
CC1c2cccn2-c2sc3c(c2CN1C(=O)Nc1ccccc1Br)CCN(C)C3 (stereo not given) | -20 | 106 | x | x
CC(=O)NCc1nc(-c2ccc3c(c2)[nH]c(=O)c(=O)n3C)no1 | -24 | 109 | x | x
CCOC(=O)c1cc(-c2ccccc2)sc1NC(=O)CCN1CCN(CC)CC1 | -1 | x | 101 | 104
CCC(C)NC(=O)c1c(C)oc2ncn(CC(C)C)c(=O)c12 (stereo not given) | x | 106 | 95 | 91
COc1ccccc1NC(=O)C(Cc1ccccc1)NS(=O)(=O)c1ccc2c(c1)c(=O)n(C)c(=O)n2C (stereo not given) | 14 | 100 | 91 | 106
C=C(C)COc1ccc2c(CC)cc(=O)oc2c1OCC(=C)C | -8 | 103 | 119 | 99
O=C(NCCC1=CCCCC1)c1ccc2c(=O)n3c(nc2c1)CCCCC3 | 4 | 98 | 105 | 94
